Screening data deposited in PubChem BioAssay by Broad Institute.
Yeast UUG start: yeast start codon fidelity modulation. S. cerevisiae UUG-firefly luciferase reporter, luminescence/redox ratio. activity score, % at 18.7 µM. actives 0.13% (n = 350,000);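 active means replicate mean at a twofold rise or more, about +100% in these data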;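 further: firefly luciferase made from a UUG start codon reports start codon fidelity; reporter light over untreated wells divided by growth signal over untreated wells; some hits fall short of that in this replicate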
The depositor's hits bear a star. Only part of the results is shown. The share of hits here may be higher or lower than overall.

SMILES	Yeast UUG start
O=S(=O)(c1ccc(F)cc1)N1C[C@@H]2[C@H](c3ccccc31)[C@@H](CO)N2Cc1ccc2c(c1)OCO2	5.7
CCCNC(=O)Nc1ccc2c(c1)OC[C@@H](C)N(Cc1ccccc1)C[C@@H](C)[C@H](OC)CN(C)C2=O	-0.9
CO[C@H]1CN(C)C(=O)c2cc(NC(=O)C3CC3)ccc2OC[C@@H](C)N(C(=O)c2cnccn2)C[C@H]1C	-7.9
CNC[C@H]1Oc2ccc(NS(=O)(=O)c3ccc(C)cc3)cc2C(=O)N([C@@H](C)CO)C[C@H]1C	-4.8
C[C@@H]1CN([C@H](C)CO)C(=O)Cc2cc(NC(=O)Nc3ccc(C(F)(F)F)cc3)ccc2O[C@H]1CN(C)C	0.9
COc1cccc(C(=O)N2C[C@@H]3[C@H](c4ccccc42)[C@@H](CO)N3C(C)=O)c1	11.5
CCC(=O)N1[C@@H]2Cn3c(ccc(-c4ccccc4)c3=O)[C@H]1[C@@H](C(=O)N1CCc3ccccc3C1)[C@@H]2CO	8.7
CO[C@H]1CN(C)C(=O)c2ccc(NC(=O)C3CCC3)cc2OC[C@H](C)N(C)C[C@H]1C	-11.7
C[C@H](CO)N1C[C@H](C)[C@H](CN(C)C)Oc2ccc(NC(=O)c3ccncc3)cc2C1=O	-14.7
C[C@H]1CN([C@@H](C)CO)C(=O)c2cc(NC(=O)C3CC3)ccc2O[C@H]1CN(C)C(=O)Nc1ccc(C(F)(F)F)cc1	11.5
COC(=O)C[C@@H]1CC[C@H]2[C@H](COc3ccc(NC(=O)c4cnccn4)cc3C(=O)N2C)O1	-9.7
OC[C@@H]1[C@@H](c2ccc(Br)cc2)[C@@H]2CN(Cc3ccccn3)CCCCN12	-32.4
OC[C@H]1[C@@H](c2ccc(C#Cc3cccnc3)cc2)[C@@H]2CN(Cc3ccccc3F)CCCCN12	-0.1
C[C@H]1CN([C@@H](C)CO)C(=O)Cc2cc(NS(C)(=O)=O)ccc2O[C@H]1CN(C)C(=O)Nc1ccccc1	9.7
O=C(Nc1cccc(Cl)c1)N1C[C@@H]2[C@H](c3ccccc31)[C@@H](CO)N2Cc1cccnc1	-7.6
COC(=O)C[C@@H]1CC[C@H]2[C@@H](COc3ccc(NC(=O)c4ccc(C(F)(F)F)cc4)cc3C(=O)N2C)O1	17.1
CN1CCCCN2[C@H](CO)[C@@H](c3ccc(-c4cccnc4)cc3)[C@@H]2C1	-11.0
Cc1cccc(-c2ccc([C@H]3[C@@H](CO)N4CCCCN(Cc5cccnc5)C[C@H]34)cc2)c1	-9.3
O=S(=O)(Cc1ccccc1)N1CCCCN2[C@H](CO)[C@H](c3ccc(C#Cc4ccccc4)cc3)[C@@H]2C1	0.8
O=C(C1CCOCC1)N1C[C@H]2[C@@H](c3ccccc31)[C@@H](CO)N2C(=O)c1ccccc1	-2.0
CC(C)NC(=O)N(C)C[C@H]1Oc2ccc(NC(=O)Nc3ccc4c(c3)OCO4)cc2C(=O)N([C@@H](C)CO)C[C@@H]1C	-5.4
CO[C@H]1CN(C)C(=O)c2ccc(NC(=O)C3CC3)cc2OC[C@@H](C)N(C(=O)Cc2ccccn2)C[C@@H]1C	-4.3
O=C(Nc1ccccc1)[C@H]1[C@H](CO)[C@H]2Cn3c(cccc3=O)[C@H]2N1C(=O)C1CC1	-18.0
C[C@@H](O)C#Cc1ccc([C@H]2[C@H]3CN(C(=O)c4ccncc4)CCCCN3[C@H]2CO)cc1	17.0
C[C@@H]1CN([C@@H](C)CO)C(=O)CCCn2cc(nn2)CO[C@@H]1CN(C)CC1CCCCC1	-5.1

Fetched one by one from above (two):
SMILES	Yeast UUG start
C[C@H](CO)N1C[C@H](C)[C@H](CN(C)C)Oc2ccc(NC(=O)c3ccncc3)cc2C1=O	-14.7
C[C@@H](O)C#Cc1ccc([C@H]2[C@H]3CN(C(=O)c4ccncc4)CCCCN3[C@H]2CO)cc1	17.0

Additional compounds
SMILES	Yeast UUG start
C[C@@H]1CN([C@@H](C)CO)C(=O)c2cc(NS(C)(=O)=O)ccc2O[C@@H]1CN(C)Cc1ccc(-c2ccccc2)cc1	10.2
C[C@H]1CN([C@@H](C)CO)C(=O)c2cc(NC(=O)Nc3cccc4ccccc34)ccc2O[C@H]1CN(C)S(C)(=O)=O	9.2
COc1cccc(S(=O)(=O)N(C)C[C@@H]2Oc3ncc(C#Cc4ccc(C(F)(F)F)cc4)cc3C(=O)N([C@H](C)CO)C[C@@H]2C)c1	-7.5
COc1ccc(-c2ccc3c(c2)[C@H]2[C@H](CCN2S(=O)(=O)c2ccccc2F)[C@@H](CO)N3)cc1	-6.8
N#Cc1ccc(-c2ccc3c(c2)[C@H]2[C@H](CCN2C(=O)c2ccccc2F)[C@@H](CO)N3)cc1	8.4
Cc1ccc(S(=O)(=O)Nc2ccc3c(c2)CC(=O)N([C@H](C)CO)C[C@H](C)[C@@H](CN(C)Cc2ccc4c(c2)OCO4)O3)cc1	-2.1
O=C(O)[C@@H]1[C@@H](CO)[C@@H]2Cn3c(ccc(-c4cncnc4)c3=O)[C@@H]2N1C(=O)C1CCC1	-13.9
CCS(=O)(=O)Nc1ccc2c(c1)C(=O)N(C)C[C@H](OC)[C@@H](C)CN(CC1CCCCC1)[C@H](C)CO2	3.1
CCC(=O)N1CCCCN2[C@H](CO)[C@@H](c3ccc(-c4ccc(F)cc4)cc3)[C@H]2C1	-4.3
C[C@H](CO)N1C[C@H](C)[C@H](CN(C)Cc2ccc(C(=O)O)cc2)Oc2ccc(NC(=O)Nc3ccc(F)cc3)cc2C1=O	6.7
C[C@@H]1CN([C@H](C)CO)C(=O)c2cccc(NC(=O)c3ccncc3)c2O[C@H]1CN(C)Cc1ccc(C(=O)O)cc1	-2.0
CNC(=O)C[C@H]1CC[C@@H]2[C@H](COC[C@H](O)CN2S(=O)(=O)c2ccc(Oc3ccccc3)cc2)O1	15.1
C[C@@H]1CN([C@@H](C)CO)C(=O)c2cccc(NC(=O)Nc3ccc4c(c3)OCO4)c2O[C@@H]1CN(C)C(=O)NC1CCCCC1	-1.1
C[C@H](CO)N1C[C@H](C)[C@H](CN(C)Cc2ccc(C(=O)O)cc2)Oc2ccc(NC(=O)CCN3CCOCC3)cc2C1=O	12.9
Cc1cccc(-c2ccc([C@H]3[C@H]4CN(C(=O)c5ccncc5)CCCCN4[C@H]3CO)cc2)c1	-10.5
COc1cccc(C(=O)Nc2ccc3c(c2)OC[C@@H](C)N(C(=O)C2CCC2)C[C@@H](C)[C@H](OC)CN(C)C3=O)c1	6.5
CCS(=O)(=O)N1CCCCN2[C@@H](CO)[C@@H](c3ccc(-c4ccccc4)cc3)[C@@H]2C1	-13.1
COc1ccc(NC(=O)N(C)C[C@H]2Oc3ccc(NC(=O)CCN4CCOCC4)cc3CC(=O)N([C@@H](C)CO)C[C@@H]2C)cc1	4.3
Cc1noc(C)c1S(=O)(=O)Nc1ccc2c(c1)C(=O)N([C@H](C)CO)C[C@H](C)[C@H](CN(C)S(=O)(=O)c1ccccc1)O2	0.0
Cc1noc(C)c1NC(=O)N(C)C[C@@H]1Oc2c(NS(=O)(=O)c3cn(C)cn3)cccc2C(=O)N([C@@H](C)CO)C[C@H]1C	8.1
CCCNC(=O)C[C@H]1CC[C@@H]2[C@H](COC[C@@H](O)CN2Cc2ccncc2)O1	-1.7
C[C@@H]1CN([C@@H](C)CO)C(=O)Cc2cc(NC(=O)Nc3cccc4ccccc34)ccc2O[C@H]1CN(C)Cc1ccc(C(=O)O)cc1	3.5
CNC[C@@H]1Oc2c(NS(=O)(=O)c3c(C)noc3C)cccc2C(=O)N([C@@H](C)CO)C[C@@H]1C	-3.6
CCC(=O)N1[C@H](CO)[C@H](c2ccccc2)[C@H]1CN(CC)C(=O)c1ccccc1	3.2
CN1[C@@H]2Cn3c(cccc3=O)[C@H]1[C@@H](C(=O)NCC1CCCCC1)[C@@H]2CO	-5.1
Next section:
SMILES	Yeast UUG start
C/C=C/c1ccc([C@@H]2[C@@H](CNC(=O)c3ccncc3)N(C(=O)CC)[C@H]2CO)cc1	-10.3
CC(C)NC(=O)Nc1cccc2c1O[C@H](CN(C)C(=O)NC(C)C)[C@H](C)CN([C@@H](C)CO)C2=O	-12.2
CC(=O)N1CC[C@@H]2[C@H]1c1cc(C#Cc3cccnc3)ccc1N[C@@H]2CO	3.3
CCCNC(=O)N1[C@H](CO)[C@@H](c2ccccc2)[C@@H]1CNC(C)=O	-11.1
O=C(C[C@@H]1CC[C@H]2[C@@H](COC[C@@H](O)CN2Cc2ccc(F)cc2)O1)N1CCc2ccccc2C1	12.5
COc1ccccc1C#Cc1ccc([C@@H]2[C@H]3CN(C(=O)C4CC4)CCCCN3[C@H]2CO)cc1	10.5
O=C(CN1CCOCC1)N1CCCCN2[C@H](C1)[C@H](c1ccc(Br)cc1)[C@@H]2CO	-14.5
C[C@H]1CN([C@@H](C)CO)C(=O)c2cccc(NC(=O)C3CCOCC3)c2O[C@H]1CN(C)S(=O)(=O)c1ccccc1	2.7
CC(C)NC(=O)Nc1ccc2c(c1)CC(=O)N([C@@H](C)CO)C[C@H](C)[C@@H](CN(C)Cc1ccc(Cl)c(Cl)c1)O2	-0.8
O=C(Cc1ccccc1)N1CC[C@H]2[C@H](CO)Nc3ccc(Br)cc3[C@H]21	11.0
Cc1cccc(-c2ccc([C@H]3[C@@H](CO)N4CCCCN(C(=O)c5ccncc5)C[C@@H]34)cc2)c1	-10.6
COc1ccc(-c2ccc([C@H]3[C@H]4CN(C(=O)c5ccc6c(c5)OCO6)CCCCN4[C@H]3CO)cc2)cc1	5.0
COc1ccc(CN(C)C[C@H]2Oc3c(NS(=O)(=O)c4cn(C)cn4)cccc3C(=O)N([C@H](C)CO)C[C@H]2C)cc1	2.3
N#Cc1cccc(-c2ccc([C@H]3[C@H](CO)N4CCCCN(C(=O)Nc5cccc(F)c5)C[C@@H]34)cc2)c1	12.4
COc1ccc(CN(C)C[C@H]2OCc3cnnn3CCCC(=O)N([C@H](C)CO)C[C@H]2C)cc1	-16.9
CN1C(=O)c2cc(NC(=O)Nc3cccc(Cl)c3)ccc2OC[C@H]2O[C@@H](CC(=O)NCCc3ccncc3)CC[C@@H]21	2.3
O=C(C[C@@H]1CC[C@H]2[C@@H](COC[C@@H](O)CN2Cc2cccc(-c3ccncc3)c2)O1)N1CCN(c2ccccc2)CC1	-9.8
CC=Cc1ccc2n(c1=O)C[C@H]1[C@H](CO)[C@@H](C(=O)N3CCCCC3)[C@@H]2N1C(=O)C1CC1 (mixture of isomers)	0.0
CCCN1C[C@H](C)[C@H](OC)CN(C)C(=O)c2cc(NC(=O)c3cccc(F)c3)ccc2OC[C@H]1C	3.1
CCCNC(=O)C[C@@H]1CC[C@@H]2[C@H](COC[C@@H](O)CN2C(=O)Nc2ccc3c(c2)OCO3)O1	-14.5
C[C@H](CO)N1C[C@H](C)[C@H](CN(C)Cc2ccccc2)Oc2c(NC(=O)C3CC3)cccc2C1=O	-3.2
COc1ccc(CN(C)C[C@@H]2Oc3ccc(NS(C)(=O)=O)cc3C(=O)N([C@H](C)CO)C[C@@H]2C)cc1	-8.2
C[C@H](CO)N1C[C@H](C)[C@@H](CN(C)Cc2ccc(C(=O)O)cc2)Oc2ccc(NC(=O)Nc3ccc(F)cc3)cc2C1=O	7.8
C[C@H]1CN([C@@H](C)CO)C(=O)c2cc(C#CCc3ccccc3)cnc2O[C@@H]1CN(C)CC1CCCC1	-6.3
Cc1ccccc1-c1ccc([C@@H]2[C@@H](CO)N3CCCCN(C(=O)Nc4cccc(F)c4)C[C@@H]23)cc1	12.1

Taken from above:
Yeast UUG start result of `COc1ccc(CN(C)C[C@H]2Oc3c(NS(=O)(=O)c4cn(C)cn4)cccc3C(=O)N([C@H](C)CO)C[C@H]2C)cc1` stands at 2.3
Yeast UUG start result of `O=C(C[C@@H]1CC[C@H]2[C@@H](COC[C@@H](O)CN2Cc2ccc(F)cc2)O1)N1CCc2ccccc2C1` stands at 12.5
Yeast UUG start result of `C/C=C/c1ccc([C@@H]2[C@@H](CNC(=O)c3ccncc3)N(C(=O)CC)[C@H]2CO)cc1` stands at -10.3
Yeast UUG start result of `CC(C)NC(=O)Nc1ccc2c(c1)CC(=O)N([C@@H](C)CO)C[C@H](C)[C@@H](CN(C)Cc1ccc(Cl)c(Cl)c1)O2` stands at -0.8

The listing continues:
SMILES	Yeast UUG start
Cc1cccc(S(=O)(=O)N2CCCCN3[C@H](CO)[C@H](c4ccc(-c5ccncc5)cc4)[C@@H]3C2)c1	1.4
CCC(=O)N1[C@@H](CO)[C@@H]2c3ccccc3N(S(=O)(=O)c3ccccc3F)C[C@@H]21	21.5
CN1C(=O)c2cc(NC(=O)c3ccccc3)ccc2OC[C@H]2O[C@H](CC(=O)NC3CCCC3)CC[C@H]21	12.7
CN(C)C(=O)c1ccc(-c2ccc([C@@H]3[C@H](CO)N4CCCCN(C(=O)C5CCC5)C[C@@H]34)cc2)cc1	3.4
CN1c2ccc(C#Cc3cccnc3)cc2[C@@H]2[C@@H](CCN2C(=O)C2CC2)[C@H]1CO	1.9
Cc1cc(C(=O)Nc2cccc3c2O[C@H](CN(C)Cc2ccc(C(=O)Nc4ccccc4N)cc2)[C@H](C)CN([C@@H](C)CO)C3=O)n(C)n1	-10.0
Cc1ccc(S(=O)(=O)N(C)C[C@H]2Oc3ccc(NC(=O)c4ccncc4)cc3C(=O)N([C@@H](C)CO)C[C@H]2C)cc1	0.6
C[C@@H]1CN([C@H](C)CO)C(=O)c2cccc(NC(=O)NC3CCCCC3)c2O[C@H]1CN(C)S(=O)(=O)c1ccc(Cl)cc1	-7.6
CCC(=O)N1[C@@H]2CN(C(=O)Nc3ccccc3Cl)c3ccccc3[C@@H]2[C@@H]1CO	1.0
O=C(C[C@H]1CC[C@@H]2[C@H](COC[C@H](O)CN2C(=O)Nc2cc(Cl)cc(Cl)c2)O1)N1CCCCC1	31.2
Cc1ccccc1-c1ccc([C@H]2[C@@H](CO)N3CCCCN(C(=O)CN4CCOCC4)C[C@@H]23)cc1	20.6
Cc1cc(C(=O)Nc2cccc3c2O[C@H](CN(C)Cc2ccc(C(=O)O)cc2)[C@@H](C)CN([C@@H](C)CO)C3=O)n(C)n1	-6.5
